CSC inhib = cancer stem cell viability inhibitors, primary screen, luminescence; cancer stem cell-like cells viability; inhibition, % at 7.5 µM; AID 2717, 2010; 300,000 tested, 1.1% active;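 active = mean at 75% or more and at least half the replicates too; tested in HMLE shEcad cells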;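 note: 0% = median of negative and 100% = median of positive control wells; the first replicate is given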
Rce1 inh = yeast Rce1p protease inhibitors, primary screen, biochemical, fluorescence, cell-free homogeneous. yeast membranes, quenched prenylated peptide cleavage fluorescence. calls only. 290,000 tested, 0.27% active. AID 2563, 2010;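 active = fall in fluorescence gain of 50% or more versus controls, with final raw signal at or below 3038400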;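 note: plate controls were neutral control wells for no effect and wells lacking membranes for full effect; tested at 10 µM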
Target sequence (Q03530 whole entry, looked up): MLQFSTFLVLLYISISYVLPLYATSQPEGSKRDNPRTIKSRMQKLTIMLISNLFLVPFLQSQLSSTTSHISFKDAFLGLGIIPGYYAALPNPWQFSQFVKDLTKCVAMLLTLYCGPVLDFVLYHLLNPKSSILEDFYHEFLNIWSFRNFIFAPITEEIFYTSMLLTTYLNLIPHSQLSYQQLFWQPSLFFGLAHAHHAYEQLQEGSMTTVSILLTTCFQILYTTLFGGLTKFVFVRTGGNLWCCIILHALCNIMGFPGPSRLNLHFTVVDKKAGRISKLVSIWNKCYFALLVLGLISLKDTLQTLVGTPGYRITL
PABP FP inh = PABP poly(A) RNA binding inhibitors, primary screen, biochemical, fluorescence polarization, uHTS | 290,000 tested, 1% active | inhibition, % at 35 µM | AID 2014, 2009;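 active = 50% or more with normal probe brightness, or confirmed in later tests; about a fifth of its hits are not listed in these tables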;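 note: calls also rest on retests at 20 µM and on dose response follow-up; controls were probe without protein and protein plus probe with vehicle; some compounds called inactive have numbers as strong as hits; many hits fall short of the cut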
MT1-MMP act inh = blockers of MT1-MMP proenzyme processing, primary screen, HT1080 RFP-PRO-GFP cells, GFP/RFP fluorescence; GFP/RFP ratio fluorescence, overnight; percent of plate control window, DMSO zero; GFP/RFP ratio change, % at 20 µM; 360,000 tested, 0.061% active;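 active = GFP/RFP ratio change of at least 30% with cell ATP level not reduced by more than half and red fluorescence within 50% of control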; note: strong numbers were not always called active
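Assay system: HT1080 RFP-PRO-GFP cells | Dosing: 20 µM single dose, 1% DMSO | Incubation: Cells overnight before dosing, compound overnight, 37 °C, 5% CO2 | Evaluation: GFP/RFP fluorescence ratio | Control set: DMSO-only wells and HT1080 RFP-L50D-GFP cell wells as references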
eIF4H inh = human eIF4H binding inhibitors, primary screen, translation initiation inhibitor project, biochemical, uHTS, fluorescence polarization; Eukaryotic translation initiation factor 4H (Homo sapiens), Q15056; eIF4H fluorescence polarization binding assay; inhibition, % at 35 µM; 290,000 tested, 0.94% active;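 active = 50% or more with normal probe brightness, or confirmed in later tests; about a fifth of its hits are not listed in these tables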;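 note: calls also rest on retests at 20 µM and on dose response follow-up; 0% = protein and probe with vehicle and 100% = probe without protein; strong numbers were not always called active; many hits fall short of the cut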
Yeast UUG start = modulators of yeast start codon fidelity, primary screen, whole organism, S. cerevisiae, single point, plate reader. S. cerevisiae UUG-firefly luciferase reporter, luminescence/redox ratio. activity score, % at 18.7 µM. 350,000 tested, 0.13% active. AID 602363, 2012;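 active = replicate mean at a twofold rise or more, about +100% in these data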;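 note: firefly luciferase made from a UUG start codon reports start codon fidelity; reporter light over untreated wells divided by growth signal over untreated wells; some hits fall short of that in this replicate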
Env fusion inh = inhibitors of HIV-1 Env-driven cell-cell fusion, primary screen, HeLa-JRFL effector, CEM21 target cells, luciferase. inhibition, % at 12.3 µM. 360,000 tested, 1.1% active. AID 651610, 2012;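 active = mean replicate inhibition score of at least 50 and every replicate individually at or above 50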;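 note: 0% = plate neutral controls and 100% = maraviroc near 300 nM; one replicate is shown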
MT1-MMP act inh RFP = also measured in MT1-MMP act inh; calls as there; RFP signal change, %; measured here: RFP expression control read;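 0 = vehicle wells; hits needed this value within 50% of zero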
* hit, by the source's call; i = inactive; x = not tested or not shown; & = joins results of further samples. The list is partial, so the mix of outcomes need not match the whole.

Compound,PABP FP inh,Rce1 inh,Env fusion inh,CSC inhib,MT1-MMP act inh,MT1-MMP act inh RFP,Yeast UUG start,eIF4H inh
COc1ccc(OC)c(S(N)(=O)=O)c1,-5,i,-11,-12,-3,-2,-2,-8
COc1ccccc1OC(C)C(=O)Nc1ccc2c(c1)OCCO2 (centres undefined),-2,i,0,3,-3,-5,-11,6
O=S1(=O)CCN(C(CO)c2ccccc2)CC1 (centres undefined),-2,i,-17,-8,1,0,x,-4
C=CCOC(=O)C1=C(C)N=C2SCCC(=O)N2C1c1cccs1 (centres undefined),-3,i,x,-8,1,4,-22,-3
S=C(NCCc1ccccc1)NC1CCCCCC1,6,i,x,-2,-1,-4,-20,-6
Cc1ccc(Nc2nc(-c3ccccc3)c(CC(=O)O)s2)cc1,-7,x,-29,-3,-20,2,x,6
COc1cc(OC)cc(-c2cc(NC(C)=O)n[nH]2)c1,-10,i,-186,0,3,3,-22,-4
Cc1occc1C(=O)N(C)CC1CCCN(CCc2ccccc2F)C1 (centres undefined),2,i,-2,3,3,4,11,10
C[C@H]1O[C@@H](O[C@H]2[C@@H](O)C[C@H](O[C@H]3[C@@H](O)C[C@H](O[C@H]4CC[C@@]5(C)[C@H](CC[C@@H]6[C@@H]5C[C@@H](O)[C@]5(C)[C@@H](C7=CC(=O)OC7)CC[C@]65O)C4)O[C@@H]3C)O[C@@H]2C)C[C@H](O)[C@@H]1O,-8&6,i,86*,100*,-33,-34,-4,-5&-8
COCCCNC(=O)Cn1nc(-c2cccc(OC)c2)ccc1=O,6,i,-11,-2,-1,-3,-10,7
CCN(C(C)=O)c1nc(CSc2nnc(NC(C)C)s2)cs1,3,i,-18,-20,1,-1,1,-6
CCOC(=O)COc1ccc(C(=O)CC)cc1OC,4,i,-11,-1,3,2,-13,3
CCCC(=O)N1CCN(c2nc3ccccc3s2)CC1,-3,i,-18,1,5,-5,-27,-7
COc1cccc(C(=O)N2N=C(c3ccccn3)CC2(O)C(F)(F)F)c1 (centres undefined),-3,i,17,17,4,-3,x,-2
CCOC(=O)c1cc(-c2ccccc2)nn1CC1CC(c2cccc([N+](=O)[O-])c2)=NO1 (centres undefined),x,i,22,28,0,2,-17,x
CCOC(=O)C(Cc1ccccc1)NC(=O)CNC(C)=O (centres undefined),-11,x,-82,-6,5,2,-8,-1
CCN1CCCC1Cn1cnc2c([nH]c3ccc(Cl)cc32)c1=O (centres undefined),3,i,x,11,-1,-2,-13,-8
O=C1OC[C@H]2CCCN2C(=O)[C@@H](CC(=O)N(CCO)Cc2ccccc2)C/C=C\CC[C@H]1Cc1ccc(F)cc1,x,x,12,x,0,-1,23,x
O=C(NCCCO)c1cc2ccccc2[nH]1,2,i,4,-7,3,3,x,-17
CN(C)c1ccc(/C=C/c2nnnn2-c2ccccc2)cc1,-6,i,x,x,3,-1,-15,-7
COc1ccc(N2CCN(C(=O)CCCC3=NS(=O)(=O)c4ccccc4N3)CC2)cc1,-9,i,-122,-2,-1,-3,x,1
COCCN1Cc2cccc(C(=O)Nc3ccc(S(=O)(=O)N4CCCCC4)cc3)c2C1=O,-7,i,-1,-13,-4,0,-5,8
CN(C)C(=O)C1C2NC(=S)N(c3ccccc3)C1(C)Oc1ccccc12 (centres undefined),5,i,-3,-11,-4,-3,x,-6
CSc1ccc(CN2C(=O)C(C)Sc3ccc(C(C)=O)cc32)cc1 (centres undefined),x,x,-10,x,-2,-4,-36,x
O=C(CCCCCN1C(=O)C2C3C=CC(C3)C2C1=O)Nc1nccs1 (centres undefined),3,i,-5,-10,-1,-1,-7,-5
COc1ccccc1CNC(=O)C(=O)NCC1CCCN1S(=O)(=O)c1cc(C)ccc1C (centres undefined),x,x,28,x,4,-2,-4,x
Cn1c(NC(=O)c2cc(Cl)ccc2Cl)cc(=O)n(C)c1=O,-4,i,4,-4,1,0,-16,-2
CCOC(=O)c1ccc(NC(=O)c2c(C)[nH]c(C(=O)OCC)c2C)cc1,-7,i,1,-6,11,0,2,2
CC1(C)CC(NC(=O)C2CCN(S(=O)(=O)c3cccc(C(F)(F)F)c3)CC2)CC(C)(C)N1,x,x,-3,x,-1,1,-4,x
CCCS(=O)c1nc(C)cc(C)c1S(C)(=O)=O (centres undefined),-3,i,-11,x,0,-2,x,2

Results in MT1-MMP act inh RFP, PABP FP inh and eIF4H inh, for 2 of the compounds above:
Molecule	MT1-MMP act inh RFP	PABP FP inh	eIF4H inh
CN(C)C(=O)C1C2NC(=S)N(c3ccccc3)C1(C)Oc1ccccc12 (centres undefined)	-3	5	-6
O=C(CCCCCN1C(=O)C2C3C=CC(C3)C2C1=O)Nc1nccs1 (centres undefined)	-1	3	-5

Whole records, quoted from the list. Order of values: PABP FP inh | Rce1 inh | Env fusion inh | CSC inhib | MT1-MMP act inh | MT1-MMP act inh RFP | Yeast UUG start | eIF4H inh
`Cn1c(NC(=O)c2cc(Cl)ccc2Cl)cc(=O)n(C)c1=O` in the list: -4 | i | 4 | -4 | 1 | 0 | -16 | -2
`CCOC(=O)c1ccc(NC(=O)c2c(C)[nH]c(C(=O)OCC)c2C)cc1` in the list: -7 | i | 1 | -6 | 11 | 0 | 2 | 2
`O=C(CCCCCN1C(=O)C2C3C=CC(C3)C2C1=O)Nc1nccs1` (centres undefined) in the list: 3 | i | -5 | -10 | -1 | -1 | -7 | -5

New compounds follow.
Compound,PABP FP inh,Rce1 inh,Env fusion inh,CSC inhib,MT1-MMP act inh,MT1-MMP act inh RFP,Yeast UUG start,eIF4H inh
Clc1ccc(Cc2noc(-c3cccs3)n2)cc1,-2,i,-82,-9,-1,3,-10,-6
CC(=O)Nc1nonc1NC(=O)c1ccc(F)cc1,12,i,-61,2,3,3,2,-1
Clc1ccccc1-c1nnc2n1-c1ccccc1SC2,9,i,16,x,-2,-1,x,0
CCOC(=O)C1CCCN(C2=NC(=O)/C(=C/c3ccc(O)c(OC)c3)S2)C1 (centres undefined),-23,i,3,x,-27,6,10,0
C/C(=N/NC(=O)c1ccoc1C)C12CC3CC(CC(C3)C1)C2,-4,i,x,-6,3,6,-14,6
CCN1CCN(c2cc(C)c3cc(NC(=S)N4CCCC(C)C4)ccc3n2)CC1 (centres undefined),-6,i,10,16,-1,-4,-22,-12
CCOC(=O)C1=CN(Cc2ccc(OC)cc2)C=C(C(=O)OCC)C1c1cccs1,-6,i,17,-4,-9,-20,x,-6
O=C(CCc1ccc(S(=O)(=O)NCCc2ccccc2)cc1)NCc1ccc2c(c1)OCO2,0,i,-23,-15,0,-8,-17,-10
O=C1COc2ccc(S(=O)(=O)N3CCC(C(=O)NCc4ccc(F)cc4)CC3)cc2N1,4,i,-2,x,3,3,5,8
CC(C)OC(=O)c1sc2nc3c(cc2c1N)C(=O)CCC3,-2,i,-187,8,3,3,0,-1
O=C(c1ccccc1)C1CCN(C(=O)C2CCC(=O)N(Cc3cccc(F)c3)C2)CC1 (centres undefined),1,i,4,x,6,-1,-12,-2
Cc1ccc(NC(=O)N2CCN(S(=O)(=O)c3ccccc3)CC2)cc1,3,i,3,5,7,3,x,-9
CCC(Sc1nc(C)cc(C)n1)C(=O)O (centres undefined),7,i,x,-13,2,2,-14,-3
O=C(O)C1CCCN(S(=O)(=O)Cc2ccccc2)C1 (centres undefined),-4,i,13,-6,0,5,13,2
OC(CN1C2=NCCCN2c2ccccc21)c1ccc(Cl)cc1 (centres undefined),-11,i,-7,8,-3,2,-2,0
C#CCN1C(=O)S/C(=C\c2ccc(-c3ccc(Cl)c(C(=O)O)c3)o2)C1=O,22,i,-71,x,-6,3,-22,17
O=C(NCc1ccncc1)C(=O)N/N=C/c1ccccn1,7,i,10,0,3,5,x,1
CCc1cc2c(SCC(=O)N3CC(=O)Nc4ccccc43)ncnc2s1,14,i,3,-9,-3,0,-8,6
COCn1ccnc1C(=O)c1ccco1,x,x,11,x,-2,2,-25,x
CC(=O)N(c1ccc2oc(=O)sc2c1)S(=O)(=O)c1cccc2cccnc12,-8,i,-12,x,6,1,3,11
O=C(COc1ccc(Br)cc1)Nc1ccccc1C(=O)N1CCOCC1,2,i,x,-11,-3,0,-4,0
CCc1nn2c(=O)cc(CSCC(=O)Nc3ccccc3F)nc2s1,6,i,x,x,1,2,-8,-11
Cc1ccc(C)c(C(=O)COC(=O)C2CCN(c3ccc(C(F)(F)F)cn3)CC2)c1,x,i,-11,-3,11,1,-16,x
O=C(CCN1CCN(Cc2ccccc2)CC1)NNC(=O)Nc1cccc([N+](=O)[O-])c1,-8,i,-3,-5,3,2,-6,-7
COc1ccc(S(=O)(=O)N(Cc2ccccc2)Cc2nc3ccccc3c(=O)[nH]2)cc1,-12,i,x,1,7,-1,-11,-5
CCn1c(=O)cc(OCC(=O)N2CCc3ccccc32)c2ccccc21,-1,x,-10,x,-1,6,-14,-14
C=CCN1C(=O)/C(=C\c2cccs2)C(C(=O)OC)=C1C,9,i,-49,-9,1,6,16,-10
CC(=O)c1ccc(NC(=O)C2CCC(C)(C(=O)O)C2(C)C)cc1 (centres undefined),1,i,-1,-8,-4,-3,-2,2
O=C(c1cc(COc2c(F)cccc2F)on1)N1CCSCC1,-6,i,-8,-11,-4,-2,-16,-11
CCc1nc(N2CCC3(CC2)OCCO3)c2nnn(Cc3ccccc3)c2n1,4,i,2,-22,6,-8,0,0

Looked up above.
Reading for `COc1ccc(S(=O)(=O)N(Cc2ccccc2)Cc2nc3ccccc3c(=O)[nH]2)cc1` under eIF4H inh: -5
Reading for `O=C(COc1ccc(Br)cc1)Nc1ccccc1C(=O)N1CCOCC1` under MT1-MMP act inh RFP: 0
Reading for `O=C(CCN1CCN(Cc2ccccc2)CC1)NNC(=O)Nc1cccc([N+](=O)[O-])c1` under Yeast UUG start: -6

Continuation.
Compound,PABP FP inh,Rce1 inh,Env fusion inh,CSC inhib,MT1-MMP act inh,MT1-MMP act inh RFP,Yeast UUG start,eIF4H inh
CCOC(=O)C(CC)Sc1nnc2cc(C)c3ccccc3n12 (centres undefined),x,i,x,3,4,3,7,x
Cc1ccc(SCc2c(C(=O)N/N=C/c3ccc(C)o3)nnn2-c2nonc2N)cc1,x,x,-17,x,1,-1,-9,x
Cc1ccc(Cc2nnc(SCC(=O)Nc3ccccc3)[nH]c2=O)cc1,x,i,12,-3,3,6,-29,x
Cc1ccc(/C=N/N2CCCCC2)o1,-10,x,11,-20,5,6,x,6

Of the compounds above, these have a thiophene ring, fused or not.
Compound,PABP FP inh,Rce1 inh,Env fusion inh,CSC inhib,MT1-MMP act inh,MT1-MMP act inh RFP,Yeast UUG start,eIF4H inh
C=CCOC(=O)C1=C(C)N=C2SCCC(=O)N2C1c1cccs1 (centres undefined),-3,i,x,-8,1,4,-22,-3
Clc1ccc(Cc2noc(-c3cccs3)n2)cc1,-2,i,-82,-9,-1,3,-10,-6
CCOC(=O)C1=CN(Cc2ccc(OC)cc2)C=C(C(=O)OCC)C1c1cccs1,-6,i,17,-4,-9,-20,x,-6
CC(C)OC(=O)c1sc2nc3c(cc2c1N)C(=O)CCC3,-2,i,-187,8,3,3,0,-1
CCc1cc2c(SCC(=O)N3CC(=O)Nc4ccccc43)ncnc2s1,14,i,3,-9,-3,0,-8,6
C=CCN1C(=O)/C(=C\c2cccs2)C(C(=O)OC)=C1C,9,i,-49,-9,1,6,16,-10

Screens from PubChem.
